High-throughput results: PubChem BioAssay, several laboratories
Sa RN4220 lethal – S. aureus RN4220 growth inhibition. OD600, 16 h. inhibition, % (test concentration not listed). AID 1259311. actives 0.33% (n = 330,000);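 active = z-score of -3 or lower and OD600 up to 0.18 on both plates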;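 also: plate controls were untreated cells for no effect and reference antibiotic for full effect; stock transfer was 100 nL into about 80 µL; one replicate is shown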
BJeLR viability – BJeLR cell viability loss. BJeLR (HRASV12) viability, CellTiter-Glo ATP luminescence, 48 h; reference of the scale not given here. inhibition, % (concentration not given with the values). actives 0.17% (n = 300,000). AID 1554;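 active = replicate mean above 50%; inconclusive = above 50% but judged a plate artefact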;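 also: 50 nL library stock added to about 25 µL; numbers are from one replicate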
ugtP null kill – compounds lethal to S. aureus RN4220 ugtP deletion mutant. OD600 growth, 16 h; some inactives read as strong as hits. growth inhibition, % (test concentration not listed). actives 0.54% (n = 330,000). AID 1259309;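 active = z-score under -3 and OD600 up to 0.15 on both plates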;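 also: plate controls were untreated wells for no effect and antibiotic for full effect; wells of about 80 µL received 100 nL stock; the first replicate is given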
Autofluor counter – flagged as autofluorescent in microsphere protease counterscreen; compound autofluorescence counterscreen, microsphere flow cytometry; hits give high values; fluorescence intensity (concentration not given with the values); actives 3.1% (n = 360,000); AID 624483;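 active = at least 3 SD above the mean of all compounds, about 16000 in these data; inconclusive = too few beads counted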;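 also: 100 nL of 1 mM stock went into each well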
Mtb hypoxia rep – Mtb hypoxia fluorescent reporter inhibition; M. tuberculosis hypoxia-regulated fluorescent reporter, fluorescence; fluorescence inhibition, % (test concentration not listed); actives 0.1% (n = 300,000); AID 1159583;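 active = 35 to 45% if threefold the growth effect, above 45% if 1.5-fold the growth effect; inactive = the rest, general growth blockers included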;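 also: wells of about 50 µL received 100 nL stock; 0% = vehicle wells and 100% = reference inhibitor wells; whole bacteria with a GFP reporter of the hypoxia response; strong numbers were not always called active; many hits fall short of the cut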
PrP UTR inh – suppresses PrP 5' UTR mRNA reporter expression. cell-based PrP 5' UTR mRNA reporter, plate reader. inhibition, % (no concentration beside the values). actives 0.35% (n = 340,000). AID 488862;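 active = every replicate at 50% or more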;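 also: 0 = median of the neutral control wells; tested in H4 reporter cells; numbers are from one replicate; inactives centre near -14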
Mtb hypoxia rep growth – further read-out of Mtb hypoxia rep, marked with its call; growth inhibition, %; measured here: M. tuberculosis growth (absorbance);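 0% = vehicle and 100% = reference antibiotic; read after six days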
Active calls of the source: *; ? = inconclusive; · = not tested or not shown; & = joins results of further samples. Outcome played no part in choosing rows, and some 4% of all compounds hit somewhere here.

Each structure is followed by: Sa RN4220 lethal, Mtb hypoxia rep growth, Autofluor counter, BJeLR viability, Mtb hypoxia rep, PrP UTR inh, ugtP null kill
CC1CN(C(C)CO)C(=O)c2cccc(NC(=O)c3ccncc3)c2OC1CN(C)C(=O)Nc1ccccc1 (configuration not stated)
    -4.7, 9.4, ·, ·, 3.9, ·, -14.4
Cc1ccc(C(O)CSc2nnc(-c3ccc4ccccc4c3)n2C)cc1 (configuration not stated)
    3.8, 0.5, 5962, -10.8, 14.5, -15.2, 9.7
CC(C)OC(=O)CSc1nc2ncccc2[nH]1
    -0.8, -0.6, 3698, -13.0, -2.9, -51.3, -6.9
Cc1ccc2cc(CN(CC3CCCO3)C(=S)Nc3ccccc3)c(=O)[nH]c2c1 (configuration not stated)
    0.9, 8.5, 4286, 15.6, -4.0, -13.3, -1.5
COc1ccc(-c2nnc(SCC(=O)NC3CCCCC3)o2)cc1
    4.9, 5.6, 5071, -6.5, -1.9, -35.3, 16.7
CC(C)(C)OC(=O)CC1CC=CCC(CC(=O)NCCO)C(=O)N2CCCC2COC1=O (configuration not stated)
    5.1&-4.3&4.9&3.5&5.1, -1.5&8.5&4.5&6.3&4.9, ·, ·, 7.3&0.0&7.9&5.0&4.6, ·, -0.9&-14.6&-8.4&1.4&-9.1
Cc1cccc(C(=O)NCC(=O)NCC2COc3ccccc3O2)c1 (configuration not stated)
    -1.7, 0.5, ?, 10.0, 8.3, -7.6, 10.6
CC1(C)Cc2c(c(=S)nc(-c3ccccc3)n2CCCN2CCOCC2)CO1
    -2.8, 0.5, 2943, 9.8, 1.5, -15.4, 8.6
CN1CCN(C2=Cc3ccccc3Sc3cc(F)ccc32)CC1
    -7.6, 10.5, 3932, 1.6, 21.0, -17.6, -27.3
CO/N=C/CC(=O)c1ccc(OC)cc1
    ·, ·, 2667, -21.1, ·, -11.1, ·
Cc1cc(=O)oc2c3c(cc(OCC(=O)NC(Cc4ccc(Cl)cc4)C(=O)O)c12)OC(C)(C)CC3 (configuration not stated)
    4.8, ·, 5451, 1.5, ·, -51.0, 3.8
CN1c2ccccc2C(C)(C)C12CC(CCl)=NO2 (configuration not stated)
    3.6, 4.3, 3314, 1.3, 9.5, -17.6, 6.7
CN1CCC2(CC1)Nc1nc(SCc3ccc(Cl)cc3)nn1C1=C2CN(C)CC1
    -4.4, ·, 4657, 4.4, ·, -12.2, 12.2
O=C(CCC(=O)N1CCN(c2ccccn2)CC1)Nc1nnc(C(F)(F)F)s1
    4.6, 7.8, ?, -15.9, 2.9, -20.2, 10.4
CC(C)=NNc1nc2c(c(=O)n(C)c(=O)n2C)n1CCc1ccccc1
    -3.1, 2.9, 3195, -10.8, -7.4, -10.6, 3.6

Quoted at random: 4 compounds from above.
Each structure is followed by: Sa RN4220 lethal, Mtb hypoxia rep growth, Autofluor counter, BJeLR viability, Mtb hypoxia rep, PrP UTR inh, ugtP null kill
O=C(CCC(=O)N1CCN(c2ccccn2)CC1)Nc1nnc(C(F)(F)F)s1
    4.6, 7.8, ?, -15.9, 2.9, -20.2, 10.4
CC(C)(C)OC(=O)CC1CC=CCC(CC(=O)NCCO)C(=O)N2CCCC2COC1=O (configuration not stated)
    5.1&-4.3&4.9&3.5&5.1, -1.5&8.5&4.5&6.3&4.9, ·, ·, 7.3&0.0&7.9&5.0&4.6, ·, -0.9&-14.6&-8.4&1.4&-9.1
CN1CCN(C2=Cc3ccccc3Sc3cc(F)ccc32)CC1
    -7.6, 10.5, 3932, 1.6, 21.0, -17.6, -27.3
CC(C)OC(=O)CSc1nc2ncccc2[nH]1
    -0.8, -0.6, 3698, -13.0, -2.9, -51.3, -6.9

Continued.
Each structure is followed by: Sa RN4220 lethal, Mtb hypoxia rep growth, Autofluor counter, BJeLR viability, Mtb hypoxia rep, PrP UTR inh, ugtP null kill
O=C(CSc1nncs1)NCc1ccc2c(c1)OCO2
    3.9, 7.4, 4348, 7.8, 12.0, -8.4, -10.6
COc1ccc(-c2csc(N(CC3CCCO3)C(=O)c3ccccc3)n2)cc1 (configuration not stated)
    -5.0, 9.2, 2528, 3.4, -2.5, -19.0, 43.2
Cc1ccccc1Cn1c(=O)c2c(nc3n2CCCN3Cc2ccccc2)n(C)c1=O
    -5.6, ·, 2112, 0.8, ·, -8.2, -3.7
Cc1csc(NC(=O)CSc2ncnc3ccccc23)n1
    7.5, 11.8, 5763, -12.6, 6.1, -16.1, 10.8
C/C(CC(=O)N(C(C)C)C(C)C)=N\NC(=O)COc1ccc(Cl)cc1Cl
    ·, ·, 4517, -3.8, ·, -9.5, ·
CCCN(CC(=O)Nc1ccc(C(C)=O)cc1)CC(=O)Nc1ccccc1C
    0.2, 0.6, 2214, 2.2, 6.9, -24.9, 15.8
O=C(CSc1nc2[nH]ncc2c(=O)[nH]1)Nc1ccc(OC(F)(F)F)cc1
    3.1, 7.9, 4281, 2.7, 0.9, -2.9, 0.0
CC1CCN(C(=O)CCCC(=O)N2CCC(C)CC2)CC1
    3.0, 4.4, 6048, -4.1, -2.9, 4.1, -3.3
COc1ccc(CCn2c(C)cc3c(c2=O)C(c2ccc4c(c2)OCO4)C(C#N)=C(N)O3)cc1OC (configuration not stated)
    7.7, 6.1, 2878, -5.4, -0.2, -4.5, 36.0
Cc1ccc(S(=O)(=O)N2CCN(C(=O)c3cc(S(=O)(=O)N4CCOCC4)ccc3Cl)CC2)c(C)c1
    2.6, -3.5, 3331, ·, -11.6, -23.3, 5.0
CC(=O)c1ccc(NC(=S)NCc2ccc(Cl)cc2Cl)cc1
    1.5, 4.2, 4128, -1.9, -2.5, -18.4, -16.9
Oc1ccc(C=NNc2cccc3cccnc23)c(O)c1
    14.6, 10.6, ·, ·, 17.7, ·, 3.4
COc1ccc(C(Nc2ccc(S(=O)(=O)NCC3CCCO3)cc2)C(=O)NC(C)(C)C)cc1OC (configuration not stated)
    -1.7, 7.7, 4322, -4.9, -5.4, -7.6, -3.9
Cn1nc(-c2ccccc2)c(CSc2ccccc2Cl)c1Cl
    -24.5, 7.1, 10460, 3.7, 9.4, -44.2, 27.6
CN(C)C(=O)CSc1nnc(Cc2ccccc2)n1Cc1ccco1
    4.5, 8.5, 8265, 5.5, 10.6, -11.1, 0.2
Cn1c(=O)c2sccc2n(Cc2cccc(Br)c2)c1=O
    2.5, -3.5, 3549, -5.8, -6.0, 4.3, 4.6
Cc1ccc(N/N=C2/CCCNC2=O)cc1
    ·, ·, 3472, 6.7, ·, -29.1, ·
COc1cc(/C=C(/NC(=O)c2ccc(Cl)cc2Cl)C(=O)O)cc(OC)c1OC
    2.6, 3.8, 8160, 0.6, 3.4, -32.2, 5.0
COc1ccccc1C1CCN(C(=O)c2ccc(Cl)cc2)CC1
    9.5, 12.3, 4297, 6.4, 12.6, -10.9, 3.1
Cn1nnnc1SCC(=O)Nc1ccc2c(c1)OCO2
    ·, ·, 4812, 3.7, ·, -17.4, ·
C=C(C)CNC(=O)CCc1nnc(C2(c3ccc(Cl)cc3)CCC2)o1
    -6.2, 0.4, 2643, -9.2, 0.6, -44.7, -4.4
O=C(O)C1CSC(c2ccccc2)N1C(=O)c1ccco1 (configuration not stated)
    1.4, ·, 3545, 1.7, ·, -20.2, 3.3
CCOc1ccc(CNC(=O)NS(=O)(=O)c2ccc(OC)cc2)cc1
    -1.5, 3.7, 7716, 6.4, -1.3, 1.1, 2.8
CCN(CC)c1cc(C)c2cc(NC(=O)CNC(C)=O)ccc2n1
    0.5, 2.7, 8165, 4.2, 7.6, -28.1, 4.7
CCCNC(=O)c1ccccc1NC(=O)CN(c1ccccc1)S(=O)(=O)N(C)C
    -5.0, 7.8, 3530, -5.2, -6.3, -20.2, 4.0
O=C1C=C(NCc2ccncc2)CC(c2ccccc2)C1 (configuration not stated)
    -3.6, ·, 2555, 3.9, ·, -4.5, -5.2
Cc1ccc(OCc2nnc(SCc3nc4ccccc4[nH]3)n2Cc2ccco2)cc1
    -4.7, ·, 5903, -0.4, ·, -4.1, -8.2
COc1cc([N+](=O)[O-])c(OC)cc1SCc1n[nH]c(=S)n1-c1ccc(C)cc1
    3.8, 5.4, 5080, 3.0, 3.0, -34.0, 1.8
CN(NC(=O)c1ccc(Cl)cc1)c1cccc(Cl)n1
    1.5, 0.8, 4344, 16.9, 2.0, -22.2, 5.2
Cc1nnc(N/N=C/c2cccc(C(F)(F)F)c2)n1N
    ·, ·, 4053, 8.5, ·, -6.5, ·
CC(=O)OCCCNc1cc(Sc2ccc(C)cc2)c2nonc2c1[N+](=O)[O-]
    6.0, 8.3, 2550, -14.7, -0.9, -14.2, -1.8
C[C@]12CC(=O)CC1CCC1C2CC[C@@]2(C)C1CC[C@@H]2O (some centres not stated)
    -1.9, -19.5, 5825, -0.2, -3.4, -6.4, -1.2
CC(=O)[C@@H]1[C@@H]2C(=O)N(Cc3ccccc3)C(=O)[C@@H]2C2c3ccccc3C=CN21 (some centres not stated)
    6.6, -0.9, 9781, -27.5, 11.0, -28.9, -0.3
O=C(c1cnn2ccccc12)N1CCN(C2CCCCC2)CC1
    3.6, 11.8, 4063, 12.8, 7.2, -17.2, 15.3
COc1cc(C(C(=O)NCC2CCCO2)N(C(=O)Cn2nnc3ccccc32)c2ccc(OC)c(OC)c2)ccc1O (configuration not stated)
    -0.5, -0.8, 5408, -6.8, 9.5, -11.1, 16.1
Cc1ccc(C(C(=O)NC2CCCC2)N(Cc2cccs2)C(=O)CNC(=O)c2cccs2)o1 (configuration not stated)
    1.2, ·, 3894, -11.1, ·, 2.8, 1.9
Cn1c(SCC(=O)c2ccc3c(c2)OCCO3)nnc1C(F)(F)F
    2.6, -6.9, ·, 13.0, 3.0, -6.6, 4.7
O=C(O)c1cc(-c2ccc(N3CCOCC3)cc2)nn1-c1ccc(F)cc1
    3.4, 6.1, 1910, -2.5, -2.8, -18.7, -2.8
Cn1c(N)c(C(=O)COC(=O)C2CCCN2C(=O)c2cccs2)c(=O)n(C)c1=O (configuration not stated)
    2.8, -6.8, 4452, 1.4, 4.1, -10.7, 3.6
O=C(CSc1ncn[nH]1)N/N=C/c1ccc(Br)cc1
    ·, ·, 5860, -2.1, ·, -1.3, ·
O=C(NCCOc1ccc(F)cc1)C1CCC(=O)N(CCc2ccccn2)C1 (configuration not stated)
    -3.9, -1.9, 5622, 0.6, -9.9, 1.2, 3.1
CN1CCc2cc(O)cc3c2[C@H]1Cc1ccc(O)c(O)c1-3
    ·, ·, 3888, -6.9, ·, -20.8, ·
CCc1ccc2c(COC(=O)C3CSC4(C)CCC(=O)N34)cc(=O)oc2c1 (configuration not stated)
    8.3, 4.2, ?, ·, 7.6, -5.3, 4.1
CCOC(=O)NC(Nc1cc(C)on1)(C(F)(F)F)C(F)(F)F
    0.9, ·, 2396, -2.8, ·, -9.6, 3.4
COc1ccc(CCN(Cc2cc3cc(C)c(C)cc3nc2Cl)C(=O)C2CC2)cc1
    -2.2, -12.4, 9014, 3.9, -1.5, -7.5, 6.2
COC(=O)Nc1cc([N+](=O)[O-])ccc1OC
    2.0, 4.5, 2396, 9.0, 5.2, -18.0, -0.7
CCn1c(C)c(C(C)=O)c(NCc2ccccc2)nc1=S
    3.9, 1.8, 7213, -3.9, 16.8, -13.7, 0.6
CC(C)N1CCN(S(=O)(=O)c2ccccc2)c2ccccc21
    9.8, 7.5, 4069, ·, 3.6, -23.8, -3.8
Cc1ccc(OCCCC(=O)NNC(=O)c2ccccn2)cc1
    3.9, ·, 3805, ·, ·, 17.6, -1.2
CCc1ccc(S(=O)(=O)c2nnn3c2nc(NCCNC(C)=O)c2ccccc23)cc1
    3.5, 4.3, 2003, -8.1, 5.7, -5.6, -0.3
